# RE007 growth inh: less growth of the S. pombe RE007 Vpr strain; Potency, µM (series often up to 92.2 µM), inactives show at the top dose activity change, negative = less growth; 0.21% of 360,000 active; S. pombe RE007 Vpr strain, BacTiter-Glo ATP luminescence, 24 h; control for the full effect not named in the record; AID 651644; active = well fitted falling curve with a large enough effect; inconclusive = small, poorly fitted or top-dose-only effect; inactive = no such curve, though single readings can be large or run the other way;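 further: on the % scale 0 is the no-effect control and ±100 the full control effect; nearly all actives have a fitted effect of over 50% in size; the assay follows cell death caused by Vpr and the record does not say whether a fall means rescue or toxicity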
#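 Fission yeast strain RE007, carrying one chromosomally integrated HIV-1 vpr copy, was seeded at OD 0.01 in PMG+AL medium with 23 nL pinned compound. After 24 h at 30 °C and 99% humidity, viability was read by BacTiter-Glo luminescence.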
# LASV entry inh: inhibitors of Lassa virus binding or cell entry; Lassa virus pseudotype entry inhibition, cell reporter; control for the full effect not named in the record; Potency, µM (doses to about 37.9 µM), without a hit: at the top dose activity change, negative = inhibition, most hits filed as inhibitors; 1.2% of 300,000 active; AID 540256; active means well fitted inhibition curve with a large enough effect; inconclusive means small, poorly fitted or top-dose-only effect, or effect the other way; inactive means flat fitted curve, though single readings scatter; tested in HEK293 cells; further: on the % scale 0 is the no-effect control and ±100 the full control effect; nearly all actives have a fitted effect of over 50% in size; luciferase read-out
# MARV entry inh: Marburg virus entry inhibition | Marburg virus pseudotyped entry inhibition, cell reporter; control for the full effect not named in the record; about a third of the inactives were read at about 46 µM | 1.8% of 300,000 active | Potency, µM (series often up to 37.8 µM), without a hit: at the highest dose activity change, negative = inhibition, actives largely listed as inhibitors; active = well fitted inhibition curve with a large enough effect; inconclusive = small, poorly fitted or top-dose-only effect, or effect the other way; inactive = flat fitted curve, though single readings scatter; tested in HEK293 cells; about a fifth of its hits are not listed in these tables; further: on the % scale 0 is the no-effect control and ±100 the full control effect; luciferase read-out
# Cruzain inh noDet: inhibitors of Trypanosoma cruzi cruzain without detergent; 2.3% of 200,000 active; P25779; Potency, µM, without a hit: max response, negative = inhibition, actives largely listed as inhibitors; AID 1476; purified cruzain, Z-FR-AMC fluorescence, no detergent; active means well fitted curve in the direction sought with a large enough effect; inconclusive means small, poorly fitted or top-dose-only effect, or another doubt; inactive means no such curve, though single readings can be large; an effect the other way counts as inactive or inconclusive;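 further: plate controls were enzyme without inhibitor for no effect and buffer without enzyme for full effect; nearly all actives have a fitted effect of over 40% in size; top concentration of the series not given in the record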
# Target sequence (P25779 123-467 limits assumed): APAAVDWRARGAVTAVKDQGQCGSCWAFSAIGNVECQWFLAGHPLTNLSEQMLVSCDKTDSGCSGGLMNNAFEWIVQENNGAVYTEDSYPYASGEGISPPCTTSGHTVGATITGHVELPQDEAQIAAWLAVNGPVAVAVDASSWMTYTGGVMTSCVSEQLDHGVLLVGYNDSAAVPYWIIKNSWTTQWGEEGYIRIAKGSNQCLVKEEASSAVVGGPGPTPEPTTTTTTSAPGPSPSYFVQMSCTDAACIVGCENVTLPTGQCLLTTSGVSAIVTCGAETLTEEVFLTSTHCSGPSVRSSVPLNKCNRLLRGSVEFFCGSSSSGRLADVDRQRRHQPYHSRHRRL
#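 Detergent-free condition (0.00005% Triton X-100) in acetate buffer pH 5.5 with DTT. 1.5 nM enzyme and compound were pre-mixed 15 min, then 2 uM Z-FR-AMC substrate added; reaction progress from fluorescence change between first and third reads (60 s).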
# SARS PLP yeast: blocks SARS-CoV papain-like protease in a yeast assay; S. cerevisiae expressing SARS-CoV PLpro, growth rescue; control for the full effect not named in the record; Potency, µM (highest dose often 32.9 µM), for inactives: top-dose activity, positive = growth rescue; 0.19% of 330,000 active; AID 485353; further: 0% is about no effect; nearly all actives have a fitted effect of over 55% in size; growth read by luminescence after 48 h
# 2A StopGo: FMDV 2A StopGo reporter, luciferase signal | 1.2% of 410,000 active | AID 1159524 | human cells with a luciferase reporter of 2A StopGo recoding; control for the full effect not named in the record | Potency, µM (doses to about 57.9 µM), for the others: at the top dose signal change, negative = less light; active = well fitted falling curve with a large enough effect; inconclusive = small, poorly fitted or top-dose-only effect; inactive = no such curve, though single readings can be large or run the other way; tested in HEK293T cells; further: on the % scale 0 is the no-effect control and ±100 the full control effect; nearly all actives have a fitted effect of over 45% in size; luciferase light after 4 h
# Cruzain inh Det: inhibitors of Trypanosoma cruzi cruzain with detergent; P25779; purified cruzain, Z-FR-AMC fluorescence, 0.01% Triton; Potency, µM, inactives show max response, negative = inhibition, most hits filed as inhibitors; 0.43% of 200,000 active; AID 1478; active means well fitted curve in the direction sought with a large enough effect; inconclusive means small, poorly fitted or top-dose-only effect, or another doubt; inactive means no such curve, though single readings can be large; an effect the other way counts as inactive or inconclusive;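 further: plate controls were neutral wells for no effect and buffer without enzyme for full effect; nearly all actives have a fitted effect of over 40% in size; top concentration of the series not given in the record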
#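 Detergent-containing run (0.01% Triton X-100) in acetate buffer pH 5.5 with 5 mM DTT: enzyme at 1.5 nM final, 15 min compound preincubation at room temperature, then 2 uM Z-FR-AMC substrate. Activity taken as 60 s fluorescence increase at 360/450 nm.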
# NS1 function inh: influenza NS1 inhibition. S. cerevisiae slowed by influenza A NS1, growth recovery by OD600. Potency, µM (top dose mostly 46.1 µM), inactives show at the highest dose activity, positive = more growth. 0.4% of 270,000 active; further: actives are rising curves; nearly all actives have a fitted effect of over 50% in size
#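 In this qHTS, NS1 from influenza A is expressed in budding yeast, where it slows growth. Cells are switched from glucose to 2% galactose medium (pH 6.0, -URA), treated with compound, and growth recovery is read at OD600.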
# Numbers without * were called inactive; ? = inconclusive; nt = no result given; & = joins results of further samples; [ ] = dose if it differs, or a comment. Unless noted, the call rests on the fitted dose curve; in most records, active means well fitted rising curve with a large enough effect; inconclusive means small, poorly fitted or top-dose-only effect; inactive means no such curve, though single readings can be large or run the other way. Potency means the concentration at half of the fitted maximal effect.
# Preview, two compounds:
Structure | RE007 growth inh | LASV entry inh | MARV entry inh | Cruzain inh noDet | SARS PLP yeast | 2A StopGo | Cruzain inh Det | NS1 function inh
COc1ccccc1N1CCN(CC(=O)c2ccc(F)cc2)CC1 | -2% | nt | nt | nt | 4% | 37%[activator] | nt | -12%
CCc1cccc(NC(=O)c2ccc(NC(=O)N3CCSc4ncccc43)cc2)c1 | nt | -14%[46.1 µM] | nt | -7% | nt | 28µM* | -10% | nt

# The listing, from the start:
Structure | RE007 growth inh | LASV entry inh | MARV entry inh | Cruzain inh noDet | SARS PLP yeast | 2A StopGo | Cruzain inh Det | NS1 function inh
COc1ccccc1N1CCN(CC(=O)c2ccc(F)cc2)CC1 | -2% | nt | nt | nt | 4% | 37%[activator] | nt | -12%
CCc1cccc(NC(=O)c2ccc(NC(=O)N3CCSc4ncccc43)cc2)c1 | nt | -14%[46.1 µM] | nt | -7% | nt | 28µM* | -10% | nt
CCOc1ccc(-c2nonc2NC(=O)c2ccco2)cc1OCC | 5% | -2%[46.1 µM] | -30%&-30%[46.1 µM] | 4% | 0% | -20%&-4% | -3.8% | 5%
CC1=C(C(=O)Nc2cccnc2)C(c2ccccc2)n2nc(SCc3ccccc3Cl)nc2N1 (centres undefined) | nt | 15%[46.1 µM] | ? | 1% | nt | 2% | -2.1% | nt
CC(=O)Nc1c(C(=O)c2ccccc2)oc2ccccc12 | -8%[3.69 µM] | 6% | 15%&15% | -8% | 0% | -9% | -2.1% | -11%
Cc1ccc(CC(=O)O/N=C(\N)Cc2ccc([N+](=O)[O-])cc2)cc1 | -7% | -8%[46.1 µM] | 6% | 5% | -32% | 0% | -3.1% | -12%
O=c1cc(O)n(-c2ccc(Cl)cc2)c(=S)[nH]1 | -14% | 0% | ? | 9% | 13% | 2% | -3.3% | 25%
CC(C)c1ccc(NC(=O)NCc2ccc3c(c2)OCO3)cc1 | 1% | nt | nt | nt | -8% | 9% | nt | 0%
O=C(NCc1ccco1)c1cccc(NC(=O)c2ccccc2)c1 | 23%[3.69 µM] | 7% | ? | 7% | -2% | 15% | 2.2% | 2%
CN(C)CCN1C(=O)c2oc3ccccc3c(=O)c2C1c1ccccc1 (centres undefined) | nt | nt | -6% | 0% | 12% | nt | 1.1% | 5%
CCOC(=O)c1c(N)n(-c2ccccc2CC)c2nc3ccccc3nc12 | nt | -11%[46.1 µM] | nt | -3% | nt | 0% | 0.7% | nt
COc1cc(/C=C/C(=O)N2CCN(c3ccccn3)CC2)cc(OC)c1OC | -6% | 23% | ? | nt | 9% | -17% | nt | -5%
COc1ccc(-c2nnc(NC(=O)Cc3ccccc3)s2)c(OC)c1 | -5% | nt | nt | nt | 1% | 24% | nt | 0%
O=C(NC1CC1)C1=C[C@@H](c2ccc(Br)cc2)C[C@@H](OCCCCO)O1 | 8% | nt | nt | nt | -2% | -1% | nt | -4%
O=C(NCC1(O)CCCCC1)C1CCC(=O)N(Cc2cccc(C(F)(F)F)c2)C1 (centres undefined) | 1% | 7% | 27% | nt | 12% | -5% | nt | 5%
CC1(C)N=C(N)N=C(N)N1c1ccc(C(=O)O)cc1 | nt | nt | 3% | -1% | 5% | nt | 7.2% | 11%
COc1ccc(S(=O)(=O)N2CCN(C(=O)NC3CCCCC3)CC2)cc1 | -4% | -5% | -4%[46.1 µM] | nt | 0% | 3% | nt | -5%
O=C1c2cccc([N+](=O)[O-])c2C(=O)N1c1cccnc1 | 16% | ? | 13%[46.1 µM] | nt | 2% | 0% | nt | 0%
COc1ccccc1/C=N/NC(=O)COCC(=O)N/N=C/c1ccccc1OC | -1% | -10% | 26%[46.1 µM] | nt | -6% | -11% | nt | nt
O=C(CSc1ncc2c(n1)-c1ccccc1N(Cc1ccc(F)cc1)S2(=O)=O)NCCc1ccccc1 | nt | nt | nt | 0% | nt | 0% | 2.0% | nt
O=C(NCCN1C(=O)S/C(=C\c2cccc(Cl)c2Cl)C1=O)C1=COCCO1 | -8% | -21% | -29% | nt | 1% | -13% | nt | -18%
CCOC(=O)c1ccc(NC(=O)CSc2nc3ccccc3c(=O)n2CCNC(C)=O)cc1 | nt | -9%[46.1 µM] | nt | 1% | nt | -9% | 3.8% | nt
CCOC(=O)c1c(C)[nH]c(C)c1S(=O)(=O)N1c2ccccc2CC1C (centres undefined) | 1% | nt | nt | nt | 2% | 13% | nt | -5%
O=S(=O)(c1ccc(F)cc1)N1CCCN(Cc2c(F)cccc2F)CC1 | -21% | -4% | 20% | nt | 1% | -21% | nt | -3%
CCc1cccc(N(CC(=O)NCc2ccc(F)cc2)C(=O)c2csnn2)c1 | -10% | -21% | -1%[46.1 µM] | nt | 0% | -9% | nt | 1%
CCCn1c(C)cc(C(=O)COc2ccc(C)nc2[N+](=O)[O-])c1C | -7% | 15% | ? | 3% | 1% | 0% | -4.9% | 0%
O=C(CCS(=O)(=O)c1ccccc1)Nc1nc2ccc(F)cc2s1 | 13% | -8% | -10% | nt | -1% | 11% | nt | nt
CCC(=O)c1c[nH]c(C(=O)NCc2cccs2)c1 | 8% | ? | 5%[46.1 µM] | nt | 2% | 12% | nt | -42%
COc1ccc(C(C)=O)cc1CSc1nnc(Nc2ccccc2C)s1 | -2% | -18% | -8% | ? | 13% | 0% | -5.8% | 3%
CC(C)c1nnc(SCC(=O)NCCC2=CCCCC2)n1N | -4% | 19% | -2% | 14% | 6% | -2% | -3.3% | -6%
CC(C)OCCCN(Cc1ccco1)C(=O)c1cc2c(s1)-c1ccccc1OC2 | nt | nt | -26%[46.1 µM] | ? | nt | -24% | ? | nt
O=C(NCCCN=C1NS(=O)(=O)c2ccccc21)c1ccc(F)cc1 | 6% | 5% | 16% | nt | 4% | -10% | nt | 2%
O=C(NCc1ccccc1Cl)C1CCN(S(=O)(=O)N2CCCCCC2)CC1 | 4% | -2% | ? | -8% | -1% | -24% | -9.5% | -14%
FC(F)(F)c1nnc2ccc(-n3ccnc3)nn12 | -2% | nt | nt | -3% | -1% | -8% | -3.0% | 6%
COc1ccc(C2C3=C(COC3=O)Oc3cc4c(cc32)OCO4)cc1OC (centres undefined) | 13% | -11% | -4% | nt | nt | -20% | nt | nt
CCCC(CCC)C(=O)NCCN1CCOCC1 | -2% | 3% | 2% | -2% | 10% | -10% | 4.7% | -2%
CC(C)CCN1CCN(Cc2nc3ccccc3s2)CC1CCO (centres undefined) | -12% | nt | nt | nt | 0% | -15% | nt | 0%
COc1cc(C#N)ccc1OCC(=O)c1ccc2c(c1)OCCO2 | -1% | 0% | -8% | -20% | 1% | 11% | -5.4% | -13%
COc1cc(C(=O)Nc2ccc(OCC(=O)N3CCOCC3)cc2C)cc(OC)c1OC | 0% | 1%[46.1 µM] | -2%[46.1 µM] | nt | 8% | 6% | nt | -4%
Cc1ccc(C)c(CN2C(=O)c3ccccc3S(=O)(=O)c3ccc(C(=O)NCc4ccccc4)cc32)c1 | nt | -18%[46.1 µM] | -27%[46.1 µM] | ? | nt | 17% | 0.5% | nt
CC(NC(=O)c1ccc(N(C)C)cc1)C(c1cccs1)N1CCN(C)CC1 (centres undefined) | -8% | 25% | -19% | 13% | 3% | nt | 5.1% | 0%
CC1(C)Cc2c(cnn2-c2ccc(F)cc2)C(NC(=O)c2ccoc2)C1 (centres undefined) | -7% | ? | ? | nt | 6% | 65%[activator] | nt | -4%
CCCN(C(=O)CCNC(=O)Cn1cnc2ccccc2c1=O)c1cccc(C)c1 | 10% | ? | 0%[46.1 µM] | 7% | 6% | -9%&-8% | -0.9% | 7%
CCOC(=O)C1(CC2CCCCO2)CCN(Cc2ccccc2-c2ccco2)CC1 (centres undefined) | -10% | nt | nt | nt | 0% | -25% | nt | 4%
O=C(Nc1nnc(Cc2ccccc2)s1)C1CCN(C(=O)c2ccco2)CC1 | 4% | 3% | 4%[46.1 µM] | nt | 0% | 12% | nt | -7%
CC(=O)c1c(C)[nH]c(C(=O)CSc2nnc(-c3ccco3)n2Cc2ccccc2)c1C | 10% | ? | -19% | ? | -9% | 0% | -6.9% | -7%
COC(=O)C(C#N)c1nc2ccccc2nc1N1CCCC1 (centres undefined) | 35% | -9% | -3%[46.1 µM] | 1% | -2% | -2% | -8.2% | -3%
O=C(O)CC1S/C(=N\N=C/c2ccccc2O)N(c2ccc(O)cc2)C1=O (centres undefined) | 5% | 10%[46.1 µM] | 17%[46.1 µM] | nt | 1% | -3% | nt | -6%
CN1CCN(Cc2nc3c([nH]2)c(=O)[nH]c(=O)n3C)CC1 | -3% | 17% | 8% | 5% | -2% | 18% | 9.4% | 3%

# In a second layout: entries from further up
# Value order: RE007 growth inh, LASV entry inh, MARV entry inh, Cruzain inh noDet, SARS PLP yeast, 2A StopGo, Cruzain inh Det, NS1 function inh
- O=C(NCCCN=C1NS(=O)(=O)c2ccccc21)c1ccc(F)cc1
 : 6%, 5%, 16%, nt, 4%, -10%, nt, 2%
- COc1ccc(-c2nnc(NC(=O)Cc3ccccc3)s2)c(OC)c1
 : -5%, nt, nt, nt, 1%, 24%, nt, 0%
- CCc1cccc(NC(=O)c2ccc(NC(=O)N3CCSc4ncccc43)cc2)c1
 : nt, -14%[46.1 µM], nt, -7%, nt, 28µM*, -10%, nt
- COc1ccc(C(C)=O)cc1CSc1nnc(Nc2ccccc2C)s1
 : -2%, -18%, -8%, ?, 13%, 0%, -5.8%, 3%
- O=C(NCc1ccco1)c1cccc(NC(=O)c2ccccc2)c1
 : 23%[3.69 µM], 7%, ?, 7%, -2%, 15%, 2.2%, 2%

# Screening data deposited in PubChem BioAssay by National Center for Advancing Translational Sciences (NCATS).
